Bioassay records deposited in PubChem BioAssay by Broad Institute.
AF4-AF9 inh: MLL-AF4/AF9 protein interaction inhibition | AlphaScreen, biotin-AF4 peptide binding to FLAG-AF9 | inhibition, % at 10 µM | 0.47% of 350,000 active;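 active = every replicate reaching a set inhibition limit, whatever the replicate mean, cut at about 25% in these data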;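 note: 0% = plate neutral control median and 100% = total signal loss; the record names both 10 and 1 µM as test concentration; the first replicate is given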
Target sequence (P42568 whole entry, looked up): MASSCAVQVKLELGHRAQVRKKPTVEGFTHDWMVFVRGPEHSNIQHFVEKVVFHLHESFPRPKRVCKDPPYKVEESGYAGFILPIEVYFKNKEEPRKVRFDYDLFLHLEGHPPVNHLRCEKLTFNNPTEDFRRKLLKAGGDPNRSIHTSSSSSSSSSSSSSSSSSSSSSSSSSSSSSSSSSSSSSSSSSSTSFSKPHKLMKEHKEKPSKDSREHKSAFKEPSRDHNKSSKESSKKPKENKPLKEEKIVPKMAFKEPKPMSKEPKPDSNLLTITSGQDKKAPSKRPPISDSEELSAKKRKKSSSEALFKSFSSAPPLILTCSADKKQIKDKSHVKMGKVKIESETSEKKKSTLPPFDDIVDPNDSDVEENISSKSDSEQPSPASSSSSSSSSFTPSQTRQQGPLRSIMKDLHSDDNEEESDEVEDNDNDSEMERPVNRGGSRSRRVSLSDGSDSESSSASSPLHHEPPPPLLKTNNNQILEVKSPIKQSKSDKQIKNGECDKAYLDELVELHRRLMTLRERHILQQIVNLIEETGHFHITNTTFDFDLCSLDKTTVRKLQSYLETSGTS
Active calls of the source: *. A portion of the library. The share of hits here may be higher or lower than overall.

`CCCC(=O)Nc1ccc2c(c1)OC[C@@H](C)N(Cc1ccccn1)C[C@H](C)[C@H](OC)CN(C)C2=O` gave AF4-AF9 inh 0.3.
For CO[C@@H]1CN(C)C(=O)c2ccc(NC(=O)Nc3ccccc3F)cc2OC[C@@H](C)N(CCC(F)(F)F)C[C@H]1C the results were AF4-AF9 inh 2.8.
Screening CC(C)NC(=O)N(C)C[C@@H]1Oc2cc(C#CCN(C)C)ccc2S(=O)(=O)N([C@H](C)CO)C[C@@H]1C returned AF4-AF9 inh -1.7.
COc1ccc(NC(=O)N2CC(=O)N3[C@H](C2)[C@H](c2ccc(C#CCC4CCCC4)cc2)[C@@H]3CO)cc1 was read as AF4-AF9 inh 3.1.
`C[C@H](CO)N1C[C@H](C)[C@@H](CN(C)C(=O)c2ccccn2)Oc2cc(C#CCC3CCCC3)ccc2S1(=O)=O` gave AF4-AF9 inh 6.4.
For COc1ccc(NC(=O)Nc2ccc3c(c2)C(=O)N([C@@H](C)CO)C[C@H](C)[C@@H](CN(C)CC2CCCCC2)OCCCC[C@H](C)O3)cc1 the results were AF4-AF9 inh -1.7.
C[C@@H]1CCCCO[C@H](CN(C)C(=O)NC2CCCCC2)[C@H](C)CN([C@H](C)CO)C(=O)c2cc(NS(=O)(=O)c3ccc(Cl)cc3)ccc2O1 was read as AF4-AF9 inh -0.2.
For COc1ccc(C#Cc2ccc([C@@H]3[C@H](CO)N4CCCCN(S(=O)(=O)c5ccccc5)C[C@@H]34)cc2)cc1 the results were AF4-AF9 inh -0.1.
Screening CCCCCCCCN1C(=O)[C@@H](CC(=O)NCCC(C)C)C[C@@]2(C(=O)OC)C1=C[C@H](C1CCCC1)O[C@@H]2C returned AF4-AF9 inh -3.9.
Screening C[C@@H]1CN([C@H](C)CO)C(=O)Cc2cc(NC(=O)Nc3ccc4c(c3)OCO4)ccc2O[C@H]1CN(C)Cc1ccncc1 returned AF4-AF9 inh 0.8.
Screening CCN(CC(=O)NCc1cccs1)C(=O)c1ccc(N(C)S(=O)(=O)c2ccc(C)cc2)cc1 returned AF4-AF9 inh -6.3.
Screening CN(C)CC(=O)Nc1ccc2c(c1)[C@H]1C[C@@H](CC(=O)NC3CCCCC3)O[C@@H](CO)[C@H]1O2 returned AF4-AF9 inh -2.8.
CC=Cc1ccc2n(c1=O)C[C@H]1[C@H](CO)[C@@H](C(=O)NCCc3cn(C)cn3)[C@@H]2N1C(=O)CC (mixture of isomers) was read as AF4-AF9 inh 1.7.
C/C=C/c1ccc2c(c1)O[C@H](CN(C)C(=O)c1ccc3c(c1)OCO3)[C@H](C)CN([C@@H](C)CO)S2(=O)=O was read as AF4-AF9 inh 2.3.
`C[C@H](c1ccccc1)N1C[C@@H](COCc2ccccc2)Oc2cccc(Oc3ccc(C(C)(C)C)cc3)c2S1(=O)=O` gave AF4-AF9 inh 1.1.
For CCNC(=O)C[C@@H]1CC[C@@H]2[C@H](COc3ccc(NC(=O)Cc4cccs4)cc3C(=O)N2C)O1 the results were AF4-AF9 inh -1.4.
`COC(=O)C[C@@H]1CC[C@H]2[C@H](COc3ccc(NS(=O)(=O)c4ccc(C)cc4)cc3C(=O)N2C)O1` gave AF4-AF9 inh 0.9.
O=C(C[C@H]1C[C@H]2c3cc(NC(=O)c4cccnc4)ccc3O[C@H]2[C@H](CO)O1)NCc1cccc(F)c1 was read as AF4-AF9 inh -0.9.
`CCCC(=O)N1CCCC1(C)C(=O)Nc1ccc(-n2cccc2)cc1` (centres undefined) gave AF4-AF9 inh 6.1.
For C[C@@H]1CN([C@@H](C)CO)C(=O)c2cc(C#CCc3ccccc3)cnc2O[C@H]1CN(C)C(=O)C1CCCCC1 the results were AF4-AF9 inh 0.7.
`CO[C@@H]1CN(C)C(=O)c2cc(NC(=O)CC(F)(F)F)ccc2OC[C@H](C)N(C(=O)C2CC2)C[C@H]1C` gave AF4-AF9 inh -4.9.
Screening CC(C)NC(=O)N(C)C[C@H]1Oc2ncc(C#CCC3CCCC3)cc2C(=O)N([C@H](C)CO)C[C@@H]1C returned AF4-AF9 inh -6.4.
`C[C@@H]1CN([C@H](C)CO)S(=O)(=O)c2ccc(C#CCN(C)C)cc2O[C@@H]1CN(C)C(=O)C1CCC1` gave AF4-AF9 inh -3.6.
For C[C@@H]1CN([C@H](C)CO)S(=O)(=O)c2ccc(Br)cc2O[C@@H]1CN(C)S(C)(=O)=O the results were AF4-AF9 inh 2.8.
For CC(=O)Nc1ccc2c(c1)C(=O)N(C)[C@@H]1CC[C@@H](CC(=O)NCCCN3CCOCC3)O[C@@H]1CO2 the results were AF4-AF9 inh -2.4.
Screening CNC[C@@H]1Oc2c(NS(=O)(=O)c3cccs3)cccc2C(=O)N([C@@H](C)CO)C[C@H]1C returned AF4-AF9 inh -12.
`COc1ccc(S(=O)(=O)N(C)C[C@@H]2Oc3ccc(NC(=O)c4ccncc4)cc3C(=O)N([C@@H](C)CO)C[C@H]2C)cc1` gave AF4-AF9 inh -1.8.
Screening C[C@@H](NC(=O)[C@@H]1N[C@@H]2c3ccc(C4=CCCC4)c(=O)n3C[C@@H]2[C@H]1CO)c1ccccc1 returned AF4-AF9 inh -1.6.
Screening COC(=O)C[C@H]1CC[C@H]2[C@@H](COc3ccc(NC(=O)c4cncs4)cc3C(=O)N2C)O1 returned AF4-AF9 inh -2.4.
`COCC(=O)Nc1ccc2c(c1)[C@@H]1C[C@H](CC(=O)NCc3ccc4c(c3)OCO4)O[C@@H](CO)[C@@H]1O2` gave AF4-AF9 inh -1.1.
`COc1ccccc1-c1cnc2c(c1)C(=O)N([C@H](C)CO)C[C@H](C)[C@H](CN(C)C(=O)CC1CC1)O2` gave AF4-AF9 inh -2.3.
CC(=O)N(C)C[C@@H]1Oc2cc(-c3ccc(F)cc3)ccc2S(=O)(=O)N([C@@H](C)CO)C[C@H]1C was read as AF4-AF9 inh -1.4.
`C[C@H]1CN([C@@H](C)CO)C(=O)c2cc(NS(=O)(=O)c3ccc(Cl)cc3)ccc2O[C@H]1CN(C)Cc1ccc(C(=O)Nc2ccccc2N)cc1` gave AF4-AF9 inh -30.
For C[C@H]1CN([C@@H](C)CO)S(=O)(=O)c2ccc(C3=CCCC3)cc2O[C@@H]1CN(C)C(=O)C1CCOCC1 the results were AF4-AF9 inh -1.5.
For O=C(C1CC1)N1CC2(C1)[C@@H](c1ccccc1)[C@@H](CO)N2Cc1ccccc1F the results were AF4-AF9 inh -1.1.
For O=C(Nc1ccccc1F)N1C[C@H]2[C@@H](c3ccccc31)[C@@H](CO)N2C(=O)Nc1ccccc1 the results were AF4-AF9 inh 0.5.
Screening Nc1nc(=O)n(C2CCCCO2)cc1Br (centres undefined) returned AF4-AF9 inh -1.1.
Screening CCCCCNc1ncnc2c(C)[nH]nc12 returned AF4-AF9 inh 11.
Cc1ccc(CN2CC(=O)N3[C@@H](CO)[C@H](c4ccc(-c5cccnc5)cc4)[C@@H]3C2)cc1 was read as AF4-AF9 inh 0.3.
Screening O=C(C1CCOCC1)N1CC(=O)N2[C@H](C1)[C@@H](c1ccc(-c3ccccc3F)cc1)[C@@H]2CO returned AF4-AF9 inh -1.4.
Screening CO[C@H]1CN(C)C(=O)c2cc(NS(C)(=O)=O)ccc2OC[C@H](C)N(C(=O)CC2CC2)C[C@H]1C returned AF4-AF9 inh -9.6.
Screening CC(C)NC(=O)Nc1ccc2c(c1)C(=O)N([C@@H](C)CO)C[C@H](C)[C@H](CN(C)C(=O)NC1CCCCC1)OCCCC[C@H](C)O2 returned AF4-AF9 inh -17.
Screening OCCCNc1ncnc2c1ncn2[C@H]1CN(Cc2ccncc2)C[C@@H](CO)O1 returned AF4-AF9 inh -0.3.
`O=C(c1cc(Cl)cc(Cl)c1)N1CCC2CC1c1cc(-c3ccc4c(c3)OCO4)ccc12` (centres undefined) gave AF4-AF9 inh -0.7.
CO[C@@H]1CN(C)C(=O)c2cc(NC(=O)C3CCOCC3)ccc2OC[C@@H](C)NC[C@@H]1C was read as AF4-AF9 inh -1.6.
`C[C@@H]1CN([C@@H](C)CO)C(=O)c2c(c3ccccc3n2C)-c2ccccc2CO[C@@H]1CN(C)S(=O)(=O)c1cccs1` gave AF4-AF9 inh 6.7.
For C[C@@H]1CN([C@@H](C)CO)C(=O)c2cc(-c3ccc(F)cc3)cnc2O[C@H]1CN(C)C(=O)C1CCC1 the results were AF4-AF9 inh -3.2.
C[C@@H]1CN([C@H](C)CO)C(=O)c2cccc(NS(C)(=O)=O)c2O[C@H]1CN(C)S(=O)(=O)c1ccccc1 was read as AF4-AF9 inh -3.2.
`COCCCNC(=O)[C@@]1(CCS(=O)(=O)c2ccccc2)N=C(c2ccc(OCCCO)cc2)O[C@H]1c1ccccc1` gave AF4-AF9 inh 0.6.
Screening O=C(CN1CCOCC1)NCC[C@H]1CC[C@@H](NC(=O)Nc2ccc(Cl)cc2)[C@H](CO)O1 returned AF4-AF9 inh -0.4.
Screening O=C1O[C@@H](c2ccccc2)[C@@H](c2ccccc2)N2[C@@H](c3ccccc3OCCO)[C@]3(C(=O)Nc4ccc(C#CC5(O)CCCCCC5)cc43)[C@@H](C(=O)N3CCCCCCC3)[C@H]12 returned AF4-AF9 inh -3.0.
COc1cc(CN2CC3(CN(C(=O)NC(C)C)C3)c3c(n(C)c4cc(OC)ccc34)[C@@H]2CO)cc(OC)c1 was read as AF4-AF9 inh 0.8.
For O=C(c1ccccn1)N1C[C@H]2[C@@H](c3ccccc31)[C@@H](CO)N2C(=O)C1CC1 the results were AF4-AF9 inh 1.0.
For CC(C)NC(=O)N(C)C[C@H]1OCCCC[C@@H](C)Oc2ccc(NS(=O)(=O)c3ccc(Cl)cc3)cc2C(=O)N([C@H](C)CO)C[C@@H]1C the results were AF4-AF9 inh -3.7.
`C[C@@H]1CN([C@@H](C)CO)C(=O)c2cccc(NC(=O)c3nc4ccccc4s3)c2O[C@@H]1CN(C)S(=O)(=O)c1ccccc1` gave AF4-AF9 inh -3.8.
CCc1nc2c(OCc3cc(Cl)cc(Cl)c3)cccn2c1N(C)C(=O)c1ccc(OC)cc1 was read as AF4-AF9 inh 2.6.
Screening COc1cccc(-c2cc(NC(C)=O)c3ncc(-c4ccc(OC)c(OC)c4)n3c2)c1 returned AF4-AF9 inh 3.9.
Screening C[C@@H]1CN([C@@H](C)CO)C(=O)c2cc(-c3ccncc3)cnc2O[C@@H]1CN(C)C(=O)c1ccccc1F returned AF4-AF9 inh -3.1.
`Cc1ccccc1S(=O)(=O)N1C[C@@H](O)COC[C@H]2O[C@H](CC(=O)NCc3ccccc3Cl)CC[C@@H]21` gave AF4-AF9 inh 5.5.
O=C(C(=O)N1CCC(CNC(=O)c2cccnc2Cl)CC1)c1cccs1 was read as AF4-AF9 inh -1.5.

7 compounds drawn at random from those above, as already listed:
`COCCCNC(=O)[C@@]1(CCS(=O)(=O)c2ccccc2)N=C(c2ccc(OCCCO)cc2)O[C@H]1c1ccccc1` gave AF4-AF9 inh 0.6.
CCc1nc2c(OCc3cc(Cl)cc(Cl)c3)cccn2c1N(C)C(=O)c1ccc(OC)cc1 was read as AF4-AF9 inh 2.6.
`Cc1ccccc1S(=O)(=O)N1C[C@@H](O)COC[C@H]2O[C@H](CC(=O)NCc3ccccc3Cl)CC[C@@H]21` gave AF4-AF9 inh 5.5.
For CC(C)NC(=O)N(C)C[C@H]1OCCCC[C@@H](C)Oc2ccc(NS(=O)(=O)c3ccc(Cl)cc3)cc2C(=O)N([C@H](C)CO)C[C@@H]1C the results were AF4-AF9 inh -3.7.
Screening COc1cccc(-c2cc(NC(C)=O)c3ncc(-c4ccc(OC)c(OC)c4)n3c2)c1 returned AF4-AF9 inh 3.9.
O=C(C(=O)N1CCC(CNC(=O)c2cccnc2Cl)CC1)c1cccs1 was read as AF4-AF9 inh -1.5.
Screening C[C@@H]1CN([C@@H](C)CO)C(=O)c2cc(-c3ccncc3)cnc2O[C@@H]1CN(C)C(=O)c1ccccc1F returned AF4-AF9 inh -3.1.

More structures follow:
Screening Cc1ccccc1-c1ccc([C@H]2[C@H](CO)N3C(=O)CN(C(=O)c4ccncc4)C[C@@H]23)cc1 returned AF4-AF9 inh -0.3.
For C[C@H]1CN([C@@H](C)CO)C(=O)c2cccc(NC(=O)C3CCCCC3)c2O[C@@H]1CN(C)C(=O)Nc1ccccc1 the results were AF4-AF9 inh -0.4.
CC(=O)c1cccc(-c2cnc3c(NC=O)cc(-c4ccc(N(C)C)cc4)cn23)c1 was read as AF4-AF9 inh 5.1.
For Cc1ccc(-c2nc3ccc(Br)cn3c2Cc2cccc(F)c2)cc1 the results were AF4-AF9 inh 1.4.
For O=C(C1CCC1)N1C[C@@H]2[C@H](c3ccccc31)[C@@H](CO)N2C(=O)c1ccccc1 the results were AF4-AF9 inh -0.1.
Cc1ccc(S(=O)(=O)N(C)C[C@@H]2OCCCC[C@@H](C)Oc3ccc(NC(=O)Nc4ccc5c(c4)OCO5)cc3C(=O)N([C@@H](C)CO)C[C@@H]2C)cc1 was read as AF4-AF9 inh 3.5.
For COCC(=O)N1C[C@@H]2[C@H](c3ccccc31)[C@H](CO)N2C(=O)Nc1ccccc1Cl the results were AF4-AF9 inh -2.2.
Screening CCOc1ccc(S(=O)(=O)Nc2cccc(C(=O)N(C)CC(=O)Nc3ccc(OC)cc3)c2)cc1 returned AF4-AF9 inh 5.3.
`COc1ccc(NC(=O)Nc2ccc3c(c2)C(=O)N([C@H](C)CO)C[C@@H](C)[C@H](CN(C)CC2CCCCC2)OCCCC[C@@H](C)O3)cc1` gave AF4-AF9 inh -3.0.
For C[C@@H]1CN([C@H](C)CO)C(=O)c2cc(NC(=O)Nc3ccc4c(c3)OCO4)ccc2O[C@@H](C)CCCCO[C@@H]1CN(C)S(=O)(=O)c1cn(C)cn1 the results were AF4-AF9 inh -0.6.
For CCS(=O)(=O)NCC[C@H]1CC[C@@H](NS(=O)(=O)c2ccccc2C)[C@@H](CO)O1 the results were AF4-AF9 inh -1.1.
C[C@@H](NC(=O)[C@H]1[C@H](CO)[C@H]2Cn3c(cccc3=O)[C@@H]1N2Cc1ccncc1)c1ccccc1 was read as AF4-AF9 inh -2.5.
C[C@H]1CN([C@@H](C)CO)C(=O)c2c(c3ccccc3n2C)-c2ccccc2CO[C@H]1CN(C)C(=O)Nc1ccc(-c2ccccc2)cc1 was read as AF4-AF9 inh -2.1.
Screening O=C(C[C@H]1C=C[C@H](NC(=O)CN2CCOCC2)[C@H](CO)O1)NCCc1ccncc1 returned AF4-AF9 inh -1.9.
